# HCMV UL50-53 inh – disrupts HCMV UL50-UL53 complex binding; HTRF UL50-UL53 interaction, normalized percent inhibition; inhibition, % (concentration not given with the values); 190,000 compounds, 0.15% hits;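 active = both replicates at 50% or more, plus weaker picks with an unusually low signal ratio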;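 note: stock transfer was 100 nL into about 20 µL; 0% = negative control wells and 100% = wells with untagged competitor protein; inactives centre near -12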
# Sa growth 42C – S. aureus growth inhibition; S. aureus RN4220 growth, OD600, 20 h, 42 °C; active compounds read low; relative growth, % (test concentration not listed); 170,000 compounds, 0.53% hits; AID 720641;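 active = growth at 42 °C up to 50% and 20 or more points under that at 30 °C, or under 10% at both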;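 note: 300 nL library stock went into each well; scaled to the means of positive and negative controls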
# GIV Gai3 FP – inhibitors of GIV GBA-motif binding to rat Galpha-i3. percent of control (FP), % (concentration not given with the values). P08753. 210,000 compounds, 0.42% hits. Galpha-i3/FITC-GIV peptide fluorescence polarization, 90 min; active compounds read low; scaled: aluminum fluoride 0%, vehicle 100%;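 active = replicate mean at 85% of control or lower, very high polarization wells dropped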;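 note: wells of about 15 µL received 100 nL stock; the first replicate is given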
# Target sequence (P08753 whole entry, looked up): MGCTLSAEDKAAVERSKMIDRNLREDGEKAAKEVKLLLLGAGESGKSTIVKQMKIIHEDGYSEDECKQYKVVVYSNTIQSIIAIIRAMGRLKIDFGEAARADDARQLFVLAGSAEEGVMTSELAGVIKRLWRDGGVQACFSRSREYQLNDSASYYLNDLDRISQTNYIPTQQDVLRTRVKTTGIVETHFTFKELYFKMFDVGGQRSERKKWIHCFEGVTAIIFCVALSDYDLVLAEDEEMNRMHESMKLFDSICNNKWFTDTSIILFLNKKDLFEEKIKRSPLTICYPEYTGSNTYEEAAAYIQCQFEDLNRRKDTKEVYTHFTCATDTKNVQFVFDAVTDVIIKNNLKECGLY
# Sa growth 42C second temp – second read-out of Sa growth 42C, no call of its own (marks repeat the call); relative growth, %; measured here: growth at 30 °C;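 optical density after 20 h as mean of two plates; 100% = untreated growth and lower means inhibition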
# * = called active by the depositor; . = no result given; & = joins results of further samples.
SMILES,HCMV UL50-53 inh,Sa growth 42C,Sa growth 42C second temp,GIV Gai3 FP
CCOc1ccc(NC(=O)CSC2=Nc3ccccc3C3=NC(CCC(=O)NCc4ccccc4)C(=O)N23)cc1 (stereo not given),.,86,85,101
C=Cc1ccc(Cn2c(C(=O)O)c(CNCc3ccccc3)c3ccc(OC)cc32)cc1,.,88,89,106
CCc1ccccc1NS(=O)(=O)c1cc(CN2C(=O)C3CCCCC3C2=O)ccc1C (stereo not given),2,.,.,99
COc1ccc(NC(=O)C2Nc3cc(F)ccc3S(=O)(=O)N2)cc1OC (stereo not given),-16,.,.,101
CCCCNc1nc(-c2ccccc2)no1,-11,97,96,101
Cc1ccc(C(=O)Nc2cc3c(cc2C)n(C)c(=O)c(=O)n3C)cc1,.,106,77,102
CC(C)CCNc1ncnc2c1sc1nc(-c3ccco3)c3c(c12)CCCC3,-18,78,50,104
CC1=Nc2ccccc2N=C(C)C1,-24,120,93,175
Cc1ccc(C)c(NC(=O)CN2C(=O)C(C)(C)c3ccccc32)c1,.,114,91,110
COc1ccc(NC(=O)c2cc3c(=O)oc4ccccc4c3n2C)c(OC)c1,-25,.,.,105
O=C(COc1ccccc1-c1nc(-c2ccccc2Cl)no1)NC1CCCC1,-20,.,.,99
O=C(NCc1ccccc1Cl)C1CCC(CNS(=O)(=O)c2ccc(Cl)cc2)CC1 (stereo not given),.,94,100,105
NC(=S)N/N=C/c1cn[nH]c1-c1ccccc1,-6,111,107,109
COc1ccc(-c2nc3ccc(NS(=O)(=O)c4ccc(Cl)cc4)cc3o2)cc1,-22,96,92,101
CN1CCCC1=Nc1ccccc1C#N,6,109,90,.
COc1cc(OC)c(NS(=O)(=O)c2cc3c(cc2C)NC(=O)CO3)cc1Cl,-22,118,101,104&110
CCCn1ccc2c(OCC(=O)Nc3cc(C)ccc3C)cccc2c1=O,.,111,93,104
Cc1ccc(Cl)cc1-n1ncc2c(NCCCn3ccnc3)ncnc21,.,93,93,104
Cc1oc2ccc(O)c(CN3CCOCC3)c2c1C(=O)Nc1ccccc1,-6,107,93,103
CCCSc1nc2ccccc2n1CN(C)Cc1ccc2c(c1)OCCO2,-32,66,95,.
Nc1ncc(S(=O)(=O)c2ccc(Cl)cc2)c(N)n1,6,129,82,103
CCOC(=O)c1c(C)nsc1NN=C(C#N)C(=O)C(C)(C)C,-15,35,10,105
CC(C)c1ccc(NC2=NCC(=O)N2Cc2ccccc2)cc1,-11,112,71,99
COc1ccc(-c2cc(C(F)(F)F)nc(SCC(=O)NCc3ccc(F)cc3)n2)cc1,-48,98,90,106
Cc1ccccc1CN1C(=O)c2ccccc2S(=O)c2ccc(C(=O)N3CCOCC3)cc21 (stereo not given),-22,94,90,102
CN(C)S(=O)(=O)c1cccc(CSc2cccc[n+]2[O-])c1,-13,92,99,.
O=S(=O)(c1ccccc1)C1(S(=O)(=O)c2ccccc2)CCCC1,3,85,96,.
Nc1cc(N)cc(C(F)(F)C(F)(F)C(F)(F)F)c1,1,105,86,103
COc1ccc(C2NC(C(=O)O)C3C(=O)N(c4ccc(F)cc4)C(=O)C23)c(OC)c1OC (stereo not given),4,94,91,100
Cc1ccc(CCNC(=O)c2cn(C)c3ccc(S(=O)(=O)N4CCCCC4)cc3c2=O)cc1,-9,100,93,103
O=C1Cc2cc(C(=O)CSc3nnc4c(n3)CCCC4)ccc2N1,-26,90,57,99
CCO/C=C(\C#N)C(=O)Nc1ccc(F)c(Cl)c1,-33,93,93,105
CC1(C)CC(=O)C(C2(O)C(=O)N(Cc3ccccc3)c3ccccc32)CO1 (stereo not given),-8,69,46,96
CCOC(=O)c1[nH]c2c(c1Cc1ccccc1)C(=O)CC(c1ccc(OC)cc1)C2 (stereo not given),-6,106,104,104
COc1cc(/C=C\C(C)=N\O)ccc1OCc1ccccc1,-23,101,78,108
CCOC(=O)c1csc2c1CCC/C2=N/OC(C)=O,-35,128,96,107
COc1ccc(-c2nc(S(=O)(=O)c3ccc(C)cc3)c(N3CCCCC3)o2)cc1,0,117,94,95
O=C1C2CNC3(C(=O)Nc4ccccc43)C2C(=O)N1C1CCCCC1 (stereo not given),-16,93,101,104
O=C(OCc1c(F)cccc1Cl)c1cnc2sccn2c1=O,-26,81,82,.
Cc1nc2ccccc2n1CC(=O)OCC(=O)NC1CC1,34,128,104,.
O=C1CCCN1CCCNc1nc2ccccc2n2cnnc12,1,107,86,100
CC1Oc2ccc(S(=O)(=O)N3CCN(C(=O)Nc4ccccc4)CC3)cc2NC1=O (stereo not given),-14,.,.,108
O=C(NCc1cccnc1)c1cc2c(Cl)ccc3c2n1CCO3,-12,.,.,103
CNc1nc(N2CCCC2)ncc1F,-7,96,100,118
O=C(OCn1cncn1)c1ccc(Cl)cc1Cl,-56,110,77,103
CCC(=O)Nc1ccccc1-c1nc2ccccc2n(C(C)C(=O)Nc2ccc(OC)cc2)c1=O (stereo not given),-8,86,94,105
COC(=O)c1cc2nc(-c3ccccc3)cc(C(F)(F)F)n2n1,-59,94,84,104
CCC1C(=O)C(CC)C(c2ccccc2)NC1c1ccccc1 (stereo not given),-36,96,61,.
COc1cc(C2Nc3ccccc3NC3=C2C(=O)CC(c2ccc(Cl)cc2)C3)cc(OC)c1OC (stereo not given),-14,.,.,100
O=C(O)C1CC=CCC1C(=O)Nc1ccc(Cl)cc1 (stereo not given),-13,144,90,.
# Continued.
SMILES,HCMV UL50-53 inh,Sa growth 42C,Sa growth 42C second temp,GIV Gai3 FP
COC(=O)C1(C(F)(F)F)N=C(C)OC(N2CCOCC2)=N1 (stereo not given),-13,102,90,109
COc1cc(N)c(Cl)cc1C(=O)OCC(=O)c1ccc2c(c1)OCCO2,-5,109,83,.
COc1ccc2c(CC(=O)OCC(=O)Nc3ccccc3)coc2c1,8,103,92,.
CCCN(C(=O)c1ccccc1)c1c(N)n(Cc2ccccc2)c(=O)[nH]c1=O,-36,88,82,.
Cc1c(C#N)c(NC(=O)CSc2cc(C)c3ccccc3n2)n(Cc2ccco2)c1C,-26,96,87,.
CC(C)c1ccccc1NC(=O)Cn1cnc2c1c(=O)n(C)c(=O)n2C,7,95,88,105
O=C(NCc1ccc2c(c1)OCO2)C1c2ccccc2Oc2ccccc21,-11,.,.,97
N#CCc1[nH]nc(N)c1C#N,-7,.,.,105
CN1c2ccccc2N(C)C1/C=C/c1ccccc1,-14,96,73,100
Cc1ccc(-c2nc(-c3ccc(C)cc3)[nH]c(=O)n2)cc1,-8,102,106,98

# A section taken from the entries so far:
SMILES,HCMV UL50-53 inh,Sa growth 42C,Sa growth 42C second temp,GIV Gai3 FP
COc1cc(N)c(Cl)cc1C(=O)OCC(=O)c1ccc2c(c1)OCCO2,-5,109,83,.
COc1ccc2c(CC(=O)OCC(=O)Nc3ccccc3)coc2c1,8,103,92,.
CCCN(C(=O)c1ccccc1)c1c(N)n(Cc2ccccc2)c(=O)[nH]c1=O,-36,88,82,.
Cc1c(C#N)c(NC(=O)CSc2cc(C)c3ccccc3n2)n(Cc2ccco2)c1C,-26,96,87,.
CC(C)c1ccccc1NC(=O)Cn1cnc2c1c(=O)n(C)c(=O)n2C,7,95,88,105

# Following part:
SMILES,HCMV UL50-53 inh,Sa growth 42C,Sa growth 42C second temp,GIV Gai3 FP
CSc1nc2ccc(NC(=O)CCC(=O)c3cccs3)cc2s1,-36,95,87,.
N#C/C(=C/c1ccc(-c2ccc(Cl)c(C(=O)O)c2)o1)C(=O)NC1CCCC1,-60,98,120,125
O=c1[nH]c2nc[nH]c(=O)c2[nH]1,-5,.,.,107
Cn1nc(-c2ccc(N3CCOCC3)c(NS(C)(=O)=O)c2)c2ccccc2c1=O,12,97,80,103
CC1CCN(CN2C(=O)N(CN3C(=O)N(CN4CCC(C)CC4)C(=O)C3(C)C)C(C)(C)C2=O)CC1,-3,104,92,109
CC(=O)N1CCC2(CC1)Oc1ccccc1C1CC(c3ccccc3)=NN12 (stereo not given),-7,77,94,.
Cc1ccc2nc(NC(=O)CCc3nc4cc(S(=O)(=O)N5CCCCC5)ccc4n3C)sc2c1,-4,114,85,.
CCC(C)NC(=O)c1[nH]c2cc(C)ccc2c1Sc1ccc(Cl)cc1 (stereo not given),-14,96,94,101
O=C1CC(/C=C/c2ccc(Cl)cc2)=Nc2ccccc2N1,-37,94,89,.
Cc1ccc(/C=C/C(=O)Nc2cccc(NC(=O)/C=C/c3ccc(C)o3)n2)o1,-17,98,69,120

# Some of the entries so far, as tab-separated lines:
Molecule	HCMV UL50-53 inh	Sa growth 42C	Sa growth 42C second temp	GIV Gai3 FP
Cc1ccc2nc(NC(=O)CCc3nc4cc(S(=O)(=O)N5CCCCC5)ccc4n3C)sc2c1	-4	114	85	.
CCC(C)NC(=O)c1[nH]c2cc(C)ccc2c1Sc1ccc(Cl)cc1 (stereo not given)	-14	96	94	101

# Remaining list, next part:
SMILES,HCMV UL50-53 inh,Sa growth 42C,Sa growth 42C second temp,GIV Gai3 FP
COc1ccc(NC(c2ccc(C)cc2)n2ncc3c(=O)n(C)c4ccccc4c32)cc1 (stereo not given),6,83,101,.
CC(C)c1ccc(OCCN2CCNCC2)cc1,.,111,90,97
CN1CCN(C(=O)CCN2C(=O)/C(=C/c3ccccc3)SC2=S)CC1,-44,86,85,101
CC(C(=O)N1CCCCC1)N1Cc2ccccc2C1=O (stereo not given),-19,101,91,106
CN1CCCN(Cc2coc3ccccc3c2=O)CC1,-2,106,74,103
Cc1ccc(C)c(C(=O)Cn2cc(Br)ccc2=O)c1,0,88,93,.
CCOc1cc(CNC(=O)C2COc3ccccc3C2)cc(OCC)c1OCC (stereo not given),.,102,89,103
O=C(C1Nc2ccccc2S(=O)(=O)N1)N1CCN(C(c2ccccc2)c2ccccc2)CC1 (stereo not given),-27,.,.,104
N#Cc1ccsc1NC(=O)CCN1CCN(S(=O)(=O)c2ccc3c(c2)OCCCO3)CC1,7,97,101,.
COc1ccc(S(=O)(=O)c2ccc(OC)cc2)cc1,.,107,85,99
O=C(CN1CCN(S(=O)(=O)c2ccc(Cl)cc2)CC1)N(C1CCCCC1)C1CCS(=O)(=O)C1 (stereo not given),1,84,93,.
COc1ccc(-c2nnc(Oc3ccc(NC(C)=O)cc3)c3ccccc23)cc1,-23,.,.,104
CCOC(=O)c1[nH]c(C)c(C(=O)N(Cc2ccccc2)C(C)C)c1C,-37,96,87,101
Nc1cccc2cccc(C(=O)O)c12,-104,129,65,.
CCOC(=O)C1=C(C)N=c2s/c(=C\c3cccnc3)c(=O)n2C1c1c(OC)ccc2ccc(OC)cc12 (stereo not given),-16,.,.,108
Cc1cc(C)c(NC(=O)Cn2nnc(S(=O)(=O)c3ccc(C)c(C)c3)c2N)c(C)c1,-28,109,88,103
COc1ccc(NC(=O)Nc2ccccc2SCc2cc(=O)n3oc(C)cc3n2)c(OC)c1,-30,.,.,104
Cc1ccc(CNS(=O)(=O)c2ccc(-c3nnc(C4CC4)o3)s2)o1,-44,.,.,105
COc1cccc(C2OC(=O)c3ccccc3N2C(C)=O)c1OC(C)=O (stereo not given),-18,107,83,100
FC(F)(F)c1nc(N2CCCC2)nc2c1CCCCC2,.,103,85,100
C=CCSc1snnc1-c1ccc(Cl)cc1,-11,.,.,99
CCOC(=O)c1ccc(NC(=NCc2ccncc2)NC(=O)c2ccc(Br)cc2)cc1,-17,.,.,110
COc1ccccc1CNC(=O)C1CCN(C(=O)c2sccc2-n2cccc2)CC1,5,107,99,100
CCCCn1nc(C(=O)N(C)Cc2cc(Br)ccc2OC)ccc1=O,-27,82,89,.
COc1ccc(CNC(=O)C2CCCCC2C(=O)N2CCc3ccccc32)cc1OC (stereo not given),10,107,94,.
Cc1cc2c(cc3c(SCC(=O)Nc4ccc(Cl)cc4F)nnc(C)n32)o1,-34,99,62,108
Cc1ccc(S(=O)(=O)N2CCC(C(N)=O)CC2)cc1C,-2,92,98,102
O=C(CSc1nc(=O)n(CCN2CCOCC2)c2c1CCC2)Nc1cccc(Cl)c1,.,117,88,94
O=C(N1CCCCC1)C1(S(=O)(=O)c2ccc(Cl)cc2)CC1,.,118,99,100
COC(=O)c1ccc(CSc2n[nH]c(=O)c3cc(-c4ccco4)nn23)o1,-12,.,.,107
Cc1ccccc1NS(=O)(=O)c1ccc2[nH]cc(C(=O)NC(C)c3ccccc3)c(=O)c2c1 (stereo not given),.,107,76,100
CC1CCN(CC(O)CN2c3ccccc3Sc3ccccc32)CC1 (stereo not given),-2,95,74,98
C/S(=N\S(=O)(=O)c1cccc2nsnc12)c1ncccc1C(F)(F)F (stereo not given),-12,95,87,109
O=C(CSc1nnc(-c2ccccc2)c(-c2ccccc2)n1)NCCc1ccccc1,.,97,88,106
Cc1ccc(N=c2scc3n2CCC3)cc1,-27,125,85,99
Cc1ccc(CS(=O)(=O)c2cccs2)cc1,4,96,83,102
C=CCn1nc(SCCC)n2c(=O)c3c(nc12)-c1ccccc1CC3(C)C,-20,.,.,107
Cc1ccc(Sc2ccc(N3CCCC(C(=O)Nc4ccc(F)cc4)C3)nn2)cc1 (stereo not given),-9,91,82,100
COc1ccc(C2C(C#N)=C(N)OC3=C2C(=O)CC(C)(C)C3)cc1COc1ccccc1[N+](=O)[O-] (stereo not given),-18,.,.,104

# Part of the list above, tab-delimited:
smiles	HCMV UL50-53 inh	Sa growth 42C	Sa growth 42C second temp	GIV Gai3 FP
COc1cc(/C=C\C(C)=N\O)ccc1OCc1ccccc1	-23	101	78	108
CCC(=O)Nc1ccccc1-c1nc2ccccc2n(C(C)C(=O)Nc2ccc(OC)cc2)c1=O (stereo not given)	-8	86	94	105

# Screening data (PubChem)

# Random draw from the library. Share with any hit: about 0.79%.
